# 2A firefly – FMDV 2A StopGo reporter, firefly signal; Potency, µM (series often up to 57.5 µM), for inactives: at the highest dose signal change, negative = less light; HEK cells with a luciferase reporter of 2A StopGo recoding; 120,000 tested, 0.23% active; active = well fitted falling curve with a large enough effect; inconclusive = small, poorly fitted or top-dose-only effect; inactive = no such curve, though single readings can be large or run the other way; also: nearly all actives have a fitted effect of over 60% in size; overnight with compound
# 2A Renilla – lowers the Renilla signal of an FMDV 2A StopGo reporter | HEK cells with a luciferase reporter of 2A StopGo recoding | AID 1745857 | 120,000 tested, 0.32% active | Potency, µM (doses to about 57.5 µM), without a hit: top-dose signal change, negative = less light; active means well fitted falling curve with a large enough effect; inconclusive means small, poorly fitted or top-dose-only effect; inactive means no such curve, though single readings can be large or run the other way; also: nearly all actives have a fitted effect of over 55% in size; overnight with compound
# * = called active by the depositor; u = inconclusive; & = joins results of further samples; [ ] = remark or other dose. % is scaled to controls: 0 for no effect and ±100 for the full control effect; potency is read from the fitted curve at half-maximal effect. Some of the compounds tested. The share of hits here may be higher or lower than overall.
structure	2A firefly	2A Renilla
Cc1oc2cc(OCC(=O)NC3CCS(=O)(=O)C3)ccc2c(=O)c1Oc1ccccc1 (stereo not given)	34%[activator]	4%
CCc1cc(C(=O)O)cs1	11%	4%
O=C(NCCc1ccccc1)c1ccc(CSc2nc3ccncc3n2Cc2ccccc2)cc1	40%[activator]	5%
COc1ccc2cc(C(=O)NCc3ccccc3)[nH]c2c1	76%[activator]	48%[activator]
O=C(NCCc1ccc(Cl)cc1)c1ccc(CS(=O)(=O)Cc2ccc(F)cc2)o1	0%	-14%
Cc1cc(C)c2nc(SCC(=O)Nc3sccc3C(N)=O)cc(C)c2c1	-3%	-1%
COc1ccc(Nc2ncc3c(n2)CCN(Cc2cc(Br)cs2)C3)c(OC)c1	-18%	-17%
CC(=O)N1CCN(C(C(=O)O)c2cn(CC(=O)O)c3cc(F)ccc23)CC1 (stereo not given)	-1%	-7%
COc1cc(C(=O)OCC(=O)c2ccc(Cl)cc2)ccc1OCc1ccccc1Cl	20%	2%
Cc1ccccc1-c1cc(=O)c2cc(NC(=O)C3CCCCC3)ccc2o1	60%[activator]	27%
CCc1c2c(nn1-c1cc(Cl)ccc1OC)CCCC2=O	2%	-2%
CC1CCCN(Cc2cn3c(-c4cccc(Br)c4)nnc3s2)C1 (stereo not given)	6%	-1%
CCOc1ccc(CNC(=O)c2[nH]c3ccccc3c2Sc2ccc(C)cc2)cc1	1%	-5%
Cc1ccc(-n2nc(C)c(C(=O)NCCCN3CCN(c4ccc(F)cc4)CC3)c2-n2cccc2)cc1	u	u
CCOc1ccccc1CNC(=O)c1cc2c(=O)n(Cc3cccnc3)ccc2nc1C	-16%	3%
CC(=O)c1ccc(N2CCN(S(=O)(=O)c3ccc(-c4coc(C)n4)cc3)CC2)cc1	u	u
CCC(C(=O)OC)n1cnc2c(cnn2-c2ccc(F)cc2)c1=O (stereo not given)	-3%	-11%
Cc1cc(C)cc(Nc2cc(C(=O)NCc3ccccc3)c3ccccc3n2)c1	13%	5%
N#C/C(=C\c1ccc(Cl)cc1)c1nc2ccccc2[nH]1	108%[activator]	100%[activator]
Cc1ccc(/C=C/c2onc(C)c2S(=O)(=O)N2CCC(C(=O)Nc3ccc(OC(F)(F)F)cc3)CC2)cc1	-3%	-9%
CC1=C(C(=O)Nc2ccccc2)C(c2ccc(C(C)C)cc2)NC(=O)N1 (stereo not given)	6%	-3%
C#CCNC(=O)c1sc(C(C)C)nc1C	1%	2%
Nc1cccc(S(N)(=O)=O)c1	55%[activator]	14%
COc1ccc(CC(=O)N2CCN(c3nc(-c4ccc(Cl)cc4)no3)CC2)cc1OC	u	u
CCCCC(=O)N/N=C(\C)Cc1ccccc1	23%	-9%
CCc1ccc(CNC(C)CC)cc1 (stereo not given)	13%	-4%
CCOC(=O)c1c(CN2CCC(C(N)=O)CC2)nc2ccccc2c1C	-11%	-7%
Cc1ccc(NS(=O)(=O)c2ccc3c(c2)CCN3C(=O)C2CC2)c(C)c1	20%	158%[activator]
CCCN(CC(=O)Nc1ccccc1C)C(=O)c1nn(CC)c(=O)c2ccccc12	10%	20%
CCOC(=O)c1nnc2c(-c3ccc(Cl)cc3)c(C)nn2c1N	-8%	-2%
Cc1cc(C(=O)N2CCN(S(=O)(=O)c3ccc(F)cc3F)CC2)c(C)n1Cc1ccco1	-16%	-17%
C=CCn1c(SCC(=O)OCc2ccccc2)nc2c1c(=O)[nH]c(=O)n2C	-2%	-2%
O=C(NCc1ccccc1)C(=O)NCC(c1cccnc1)N1CCN(c2ccccc2)CC1 (stereo not given)	-30%	-31%
O=c1c2ccccc2nc2sc(COc3ccc(Br)cc3)nn12	0%	-5%
CC(CC(=O)O)CC(=O)N1CCCCC1 (stereo not given)	-6%	-4%
O=C(NCC12CC3CC(CC(C3)C1)C2)c1cc2nc(-c3ccc(Cl)cc3)cc(C(F)(F)F)n2n1	1%	-5%
O=S(=O)(c1ccc2c(c1)CCN2Cc1cccc(Cl)c1)N1CCOCC1	-3%	16%
COc1ccc(C2=Nc3ccc(C)cc3NC(c3ccc(Cl)cc3)=N2)cc1	96%[activator]	7%
C=CCOc1ccc(C(=O)Nc2cccc(F)c2)cc1	97%[activator]	-18%
Fc1ccc(NC(=S)NCCc2c[nH]c3ccccc23)cc1	0%	131%[activator]
CC1CCC(NC(=O)CN2C(=O)C(C)(C)c3cc(S(=O)(=O)N4CCC(C)CC4)ccc32)CC1 (stereo not given)	-11%	173%[activator]
COc1cc(NC(=O)Nc2ccc3nc(N4CCOCC4)cc(C)c3c2)cc(OC)c1	53%[activator]	0%
COC(=O)c1ccc(-n2nnc(-c3nc(-c4ccccc4Cl)no3)c2C)cc1	13%	-6%
Cc1ccc(-c2noc(COc3ccc4c(C)cc(=O)oc4c3)n2)cc1	5%	-6%
Cc1ccc(Cn2c(=O)n(CCCCC(=O)NCCc3ccc(Cl)cc3)c(=O)c3ccccc32)cc1	-4%	2%
CCCCOC(=O)/C(C#N)=C/c1ccc(-c2ccc(Br)cc2)o1	5%	-12%
O=C(Nc1ccc2[nH]ncc2c1)c1cnc2c(cnn2C2CCCC2)c1	0%	8%
CCOC(=O)c1cc(NC(=O)c2ccccc2)ccc1N1CCOCC1	0%	40%
COc1cc(CN2CCc3nc(N4CCN(c5ccccn5)CC4)ncc3C2)cc(OC)c1OC	u	u
Cn1c(C(=O)NCc2ccc(F)cc2)cc2c(=O)n(C)c3ccccc3c21	-20%	-3%
CS(=O)(=O)c1ccccc1C(=O)NCc1coc(-c2cccs2)n1	22%	-8%
CC(C)(CNC(=O)C1CCCCC1C(F)(F)F)C(N)=O (stereo not given)	0%	12%
COC(=O)CC1C(=O)NCCN1S(=O)(=O)c1ccc(Cl)cc1 (stereo not given)	17%	21%
Cc1cc(C)c2c(n1)oc1c(=O)n(CC(=O)NC3CCCCC3)cnc12	4%	4%
Cc1cc(C)c2c(=O)cc(C(=O)Nc3c(C)n(C)n(-c4ccccc4)c3=O)oc2c1	4%&-11%	-6%&4%
Cc1cc(NS(=O)(=O)c2ccc(NC(=O)c3ccccc3C)cc2)nc(C)n1	-2%	28%
CCc1cccc(NC(=O)CSc2ncc3c(n2)-c2ccccc2N(Cc2ccccc2C)S3(=O)=O)c1	-8%	-7%
Cc1cccc(C(=O)NCCc2c[nH]c3ccccc23)c1C	125%[activator]	26%
Cc1cc(C)c2nc(C)cc(C(=O)O)c2c1	13%	-11%
Cn1c(SCc2ccccc2Cl)nc(=O)c2c1NC(=O)CC2c1cc(F)ccc1F (stereo not given)	6%	4%

# By substructure, the compounds so far containing a cyano group.
structure	2A firefly	2A Renilla
N#C/C(=C\c1ccc(Cl)cc1)c1nc2ccccc2[nH]1	108%[activator]	100%[activator]
CCCCOC(=O)/C(C#N)=C/c1ccc(-c2ccc(Br)cc2)o1	5%	-12%

# Continuation:
structure	2A firefly	2A Renilla
COCc1cnc2c(c1SCC(=O)NC1CCCC1)c(=O)n(C)c(=O)n2C	-3%	-9%
C#CCNC(=O)c1ccc2ccccc2n1	58%[activator]	4%
COc1ccc(CCNc2ncnc3c2cnn3-c2ccc(C)cc2)cc1	84%[activator]	45%[activator]
CCCS(=O)(=O)c1c(Nc2ccccc2C)sc(C(=O)c2ccccc2)c1N	-16%	-6%
CCOc1ccc(Nc2oc(/C=C/c3ccc(OC)c(OC)c3)nc2C#N)cc1	-7%	-1%
COc1ccc(/C(C#N)=C/c2ccc(-c3cccc(C(F)(F)F)c3)o2)cc1OC	11%	13%
CC1=C(C(=O)Nc2ccc(C)cc2C)C(c2cc(Br)ccc2F)n2ncc(C(=O)Nc3ccc(C)cc3)c2N1 (stereo not given)	-12%	-7%
CCOc1ccc(-n2c(-c3ccc(Br)cc3)cc3c2CC(C)(C)CC3=O)cc1	-23%	-13%
CCCCNC(=O)c1cc(-c2cccnc2)nc2ccc(S(=O)(=O)NCCCC)cc12	-9%	2%
COc1c(Cl)cc(NCC(=O)NC(C)(C#N)C(C)C)cc1Cl (stereo not given)	-10%	-2%
Cc1[nH]c2c(C(=O)N3CCCCC3)cccc2c1C	0%	201%[activator]
CCC(NC(=O)c1ccco1)C12CC3CC(CC(C3)C1)C2 (stereo not given)	-9%	-2%
COCCn1cc(C(=O)NCCCOC(C)C)c2c3ccccc3n(C)c2c1=O	-6%	-4%
CCc1c(C(=O)NCCC23CC4CC(CC(C4)C2)C3)csc1C	89%[activator]	14%[1.06 µM]
COc1ccccc1-c1nnc(SCC(=O)N(Cc2ccccc2)C(C)C)n1N	-9%	7%
COc1cccc(CNC(=O)Nc2ncc(-c3ccccc3)n2C)c1	79%[activator]	46%[activator]
Cc1ccccc1C1CCCN1CC(=O)N(CCC#N)c1ccccc1F (stereo not given)	-10%	-4%
CC(C)C(NS(C)(=O)=O)C(=O)Nc1cccc(Cl)c1 (stereo not given)	-9%	2%
CCN(CC)C(=O)Cn1c(=O)n(CCCCCC(=O)NCc2ccccc2)c(=O)c2sccc21	8%	4%
CC1CCc2c(nc3ccc4ccccc4c3c2-c2cccc(O)c2)C1 (stereo not given)	0%	5%
Cc1cccc(N2CCN(Cc3cc(=O)oc4cc(C)ccc34)CC2C)c1 (stereo not given)	-17%	-14%
COc1ccccc1/C=C/c1nc(C#N)c(NCc2ccc3c(c2)OCO3)o1	1%	-2%
O=C(NCc1cccs1)c1ccc2c(c1)sc1nc(-c3ccccc3)cn12	102%[activator]	32%[activator]
CCOC(=O)c1ccc(NC(=O)c2ccccc2-c2ccccc2)cc1	u	0%[1.06 µM]

# The last 5 compounds of the section above come first, to join the parts:
structure	2A firefly	2A Renilla
CC1CCc2c(nc3ccc4ccccc4c3c2-c2cccc(O)c2)C1 (stereo not given)	0%	5%
Cc1cccc(N2CCN(Cc3cc(=O)oc4cc(C)ccc34)CC2C)c1 (stereo not given)	-17%	-14%
COc1ccccc1/C=C/c1nc(C#N)c(NCc2ccc3c(c2)OCO3)o1	1%	-2%
O=C(NCc1cccs1)c1ccc2c(c1)sc1nc(-c3ccccc3)cn12	102%[activator]	32%[activator]
CCOC(=O)c1ccc(NC(=O)c2ccccc2-c2ccccc2)cc1	u	0%[1.06 µM]
Cc1ccc(Cl)cc1NC(=O)c1nc2ccccc2nc1N1CCCCC1	-3%	-1%
Cc1cc(C)cc(NC(=O)CSc2ccc(-c3cccs3)nn2)c1	u	u
CC(C)(C)c1ccc(CS(=O)Cc2ccc(Cl)cc2)cc1 (stereo not given)	39%[activator]	19%
O=Cc1cccc(Br)c1O	21%	3%
Fc1ccc2c(c1)NC(c1ccncc1)=NC(c1cccs1)=N2	-1%	u
NC(=Nc1ccccc1)Nc1ccccc1	-11%	-9%
COc1ccc2c(c1)c(=O)c(C(=O)c1ccc(F)cc1)cn2CC(=O)Nc1ccc2c(c1)OCO2	-8%	-11%
O=C(c1ccc2ccccc2c1)N(Cc1ccc2[nH]ccc2c1)C1CC1	17%	113%[activator]
COc1cccc(NC(=O)c2cc3c(=O)n(Cc4cccnc4)ccc3nc2C)c1	2%	2%
CCN(CC)C(=O)c1ccc2c(c1)N(Cc1ccccc1F)C(=O)c1ccccc1S2=O (stereo not given)	-9%	70%[activator]
COc1ccc(N(C(=O)c2ccccc2F)S(=O)(=O)c2ccc3c(c2)n(C)c(=O)n3C)cc1	-15%	-10%
COC(=O)c1cccc(C(=O)NCC(F)(F)F)c1	-7%	1%
CCCN1CCC(NC(=O)c2cccs2)CC1	0%	-2%
Cc1ccc(CN2CCc3nc(SCC(=O)Nc4cccc(C)c4C)[nH]c(=O)c3C2)cc1	3%	-11%
Cc1ccc(C)c(NC(=O)C(C)N(C)Cc2ccc3ccccc3c2)c1 (stereo not given)	29%	34%[activator]
Cc1cccc(C)c1OCC(=O)NCC1(N2CCOCC2)CCCCC1	-22%	39%[activator]
CC(C)COC(=O)CN1C(=O)S/C(=C/c2ccc(Cl)cc2)C1=O	-4%	-24%
CCOc1cccc(C2CC(=O)Nc3c2c(=O)nc(SCc2ccccc2Cl)n3C)c1 (stereo not given)	-15%	0%
COC(=O)C1C(C(=O)OC)C2(OC(c3ccccc3)=CC2=O)C12OC(c1ccccc1)=CC2=O (stereo not given)	u	u
CCOC(=O)c1ccc(NC(=S)N(CCO)Cc2ccccc2)cc1	58%[activator]	154%[activator]
CCOCCn1cnc2sc(C(=O)Nc3ccccc3C(=O)OC)c(C)c2c1=O	-11%	-11%
C/C(=N\NC(=O)C(O)(c1ccccc1)c1ccccc1)c1cccs1	12%	8%
O=C(NC12CC3CC(CC(C3)C1)C2)c1cc(Br)c[nH]1	12%	30%
CCC(NCC(N)=O)C12CC3CC(CC(C3)C1)C2 (stereo not given)	8%	4%
O=C(NCc1ccco1)c1cc(S(=O)(=O)C2CCS(=O)(=O)C2)ccc1F (stereo not given)	2%	-5%
C/C(=N\O)c1ccc2ccccc2c1	0%&99%	-7%&0%
C=Cn1cccc1-c1ccc(OC)cc1	0%	39%
Cc1ccc(Cn2c(=O)n(CC3CCC(C(=O)N4CCC(C)CC4)CC3)c(=O)c3sccc32)cc1 (stereo not given)	-11%	-3%
Cc1ccc(NC(=O)c2ccc(Cl)cc2Cl)c(C(=O)c2ccccc2)c1	-24%	0%
C=CCSC1=N/C(=C\c2ccc(C(C)C)cc2)C(=O)S1	-3%	0%

# Screening results: PubChem, National Center for Advancing Translational Sciences (NCATS)
